Measles inh = inhibitors of measles virus growth in cells, primary screen, measles RdRp inhibitor project, cell-based, single point, HTS; z-score (no concentration beside the values); infected Vero cells, GFP fluorescence, 64 h; hits give low values; 33,000 tested, 0.1% active;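 active = z-score under -3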;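 note: score is relative to mean and SD of the compound wells of a plate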
Active calls of the source: *. The list is partial; count on the stated rates, not on these rows.

smiles	Measles inh
O=C1c2ccccc2C(=O)N1CC(=O)N(c1ccccc1)c1ccccc1	0.21
Cn1nc(CC(=O)Nc2cccc(Cl)c2)c2ccccc2c1=O	0.55
COc1ccccc1-n1c(SCC(=O)N2CCOCC2)nc2c(c1=O)SCC2	-0.89
CCOc1ccccc1C1NC(=O)CCC1[N+](=O)[O-] (stereo not drawn)	1.27
O=c1[nH]c(-c2ccc3c(c2)OCO3)cn1-c1ccccc1	1.5
CC(NS(=O)(=O)c1ccccc1)C12CCC3CCC(CC(C3)C1)C2 (stereo not drawn)	-1.04
Cc1ccc(C(=O)Nc2cccc([N+](=O)[O-])c2)cc1S(=O)(=O)N1CCCCC1	-1.18
Cc1c(C(=O)OC2CCCCC2)[nH]c2c1C(=O)CC(C)(C)C2	-0.07
CC1=C(C(=O)OCCc2ccccc2)C(c2ccc(C)cc2)C2=C(CC(C)(C)CC2=O)N1 (stereo not drawn)	-0.52
Cc1cccc(Nc2nc3ccccc3nc2NS(=O)(=O)c2ccccc2)c1C	2.02
O=C1OC(N2CCN(Cc3ccc4c(c3)OCO4)CC2)c2ccccc21 (stereo not drawn)	-0.71
Cc1nonc1NC(=O)N1CCCC1	-0.72
O=C(CCC1Nc2c3ccccc3nc(=S)n2C1=O)NCCC1=CCCCC1 (stereo not drawn)	-0.24
O=C(C1CCC(Cn2c(=S)[nH]c3ccsc3c2=O)CC1)N1CCN(c2ccccc2)CC1 (stereo not drawn)	1
Cc1ccc(N2C(=O)CSC2c2ccc(C3SCC(=O)N3c3ccc(C)cc3)cc2)cc1 (stereo not drawn)	-0.67
O=c1c2ccccc2[nH]c(=S)n1C1CCCCCC1	-1.27
Cc1ccc(C)c(NC(=O)c2cccnc2)c1	-0.02
CC1CCCC(NS(=O)(=O)c2cc(C(=O)Nc3cccc(Cl)c3)ccc2F)C1C (stereo not drawn)	-0.07
O=C(c1nn2c(C(F)(F)F)cc(-c3ccc(Br)cc3)nc2c1Br)N1CCCC1	-0.29
CCc1ccc(N2CC(C(=O)O)CC2=O)cc1 (stereo not drawn)	-0.12
Cc1ccccc1NC(=O)c1cnn(-c2ccccc2)c1NC(=O)c1cccc(F)c1	-1.02
CC(=O)c1ccc2c3c(ccc(O)c13)CC2	0.03
CN(CCOC(=O)c1ccc2c(c1)OCCO2)C(C)(C)C	-0.2
COc1ccc(NC(=O)c2cccnc2Cl)c(OC)c1	-0.02

Three compounds already listed, arranged by molar mass, highest first.
smiles	Measles inh
O=C(C1CCC(Cn2c(=S)[nH]c3ccsc3c2=O)CC1)N1CCN(c2ccccc2)CC1 (stereo not drawn)	1
COc1ccc(NC(=O)c2cccnc2Cl)c(OC)c1	-0.02
O=c1c2ccccc2[nH]c(=S)n1C1CCCCCC1	-1.27

Further records.
smiles	Measles inh
COc1cccc(C(=O)Nc2ccc(NC(=O)c3cccs3)cc2)c1	-0.55
O=C(NC1CCCCC1)c1cc(-c2cccnc2)nc2ccc(S(=O)(=O)N3CCCCCC3)cc12	-0.96
COc1cccc(-n2c(=O)c3c(C)c(C)sc3n(CC(=O)c3ccccc3)c2=O)c1	3.41
O=C(CSc1nc2sc3c(c2c(=O)[nH]1)CCCC3)NCCCN1CCOCC1	-0.31
Cn1c(=O)c2c(nc(N3CCOCC3)n2Cc2ccccc2)n(C)c1=O	0.51
CC(C)(O)C12CC3CC(CC(C3)C1)C2	-0.92
CC(=O)Nc1ccc(S(=O)(=O)NCc2cccnc2)cc1	-0.91
O=C(CS(=O)(=O)c1cccc2nsnc12)Nc1cccc(F)c1	-0.89
Cc1c(Cl)c(=O)oc2cc(OCC(=O)c3ccc(Cl)cc3)ccc12	1.45
COc1ccc(C2(C(=O)Nc3ccc(C)cc3)CCOCC2)cc1OC	-0.51
CCCc1sc(N2CCN(C(=O)c3ccccc3)CC2)nc1-c1ccccc1	-0.53
COc1ccccc1C1Nc2ccc(C(=O)c3ccccc3)cc2NC2=C1C(=O)CC(C)(C)C2 (stereo not drawn)	0.38
O=C(NCCc1ccccc1)c1nn2c(c1Cl)NC(c1cccs1)CC2C(F)(F)F (stereo not drawn)	-1.72
CC(C)(C)c1ccc(C(=O)Nc2ccc(NC(=O)c3ccccc3Cl)cc2)cc1	-0.66
CCOc1ccc(NC(=O)CSc2nc3nc(C)c(Cc4ccccc4)c(C)n3n2)cc1	0.08
C(#Cc1ccc(C=Nc2ccccn2)cc1)c1ccccc1	-0.86
COc1ccc(C2C(C(=O)Nc3ccccc3F)c3ccccc3C(=O)N2C)cc1 (stereo not drawn)	0.18
CC1(C)CC(=O)c2cc(OCC(=O)N3CCCC3)ccc2O1	0.08
CC(C)OC(=O)c1ccc(NC(=O)Cn2nnc(-c3ccccc3Cl)n2)cc1	1.06
CCOC(=O)C1=C(N)N(c2ccc(F)cc2)C2=C(C(=O)CC(C)(C)C2)C1c1ccc(OC)c(OC)c1 (stereo not drawn)	0.25
COc1ccc(S(=O)(=O)N2CCC(C(=O)N3CCCCCC3)CC2)cc1OC	1.08
Cc1nc2c(C(=O)NC3CC3)c[nH]n2c(=O)c1Cc1ccccc1F	0.5
CCOC(=O)c1c(-n2cccc2)sc2c1CCCC2=O	-0.49
Cc1ccc(C(=O)Oc2c(S(=O)(=O)c3ccccc3)c(C)nn2-c2ccccc2)cc1C	0.04
O=C(NCCCN1CCCCCC1)c1cccn2c(=O)c3c4c(sc3nc12)CCCC4	-0.41
Cc1[nH]c2ccccc2c1C=Nc1ccc(O)cc1	-0.58
Cc1cccc(C)c1Nc1c(-c2ccccn2)nc2ccc(Br)cn12	-0.49
CCCCCSc1oc(-c2ccco2)nc1S(=O)(=O)c1ccc(C)cc1	0.07
COC(=O)c1c(NC(=O)COc2ccc(C(C)C)cc2)sc2c1CCCC2	-0.3
Cc1cc(Cl)ccc1OC(=O)CCN1C(=O)c2ccccc2C1=O	0.77
CC1=C(C(=O)OC2CCCC2)C(c2cccc(I)c2)C2=C(CC(C)(C)CC2=O)N1 (stereo not drawn)	-1
COC(=O)C1=CN(Cc2ccc(Cl)cc2)C=C(C(=O)OC)C1c1cccs1	-1.46
Cc1ccc(NC(=O)c2cccc(NC(=O)c3ccccc3C(=O)O)c2)cc1C	0.47
CC(CCc1ccccc1)NC(=O)c1ccc(CNc2nc(=S)[nH]c3ccccc23)cc1 (stereo not drawn)	-2.14
CCOC(=O)c1cnn2c(C(F)(F)F)c3c(nc12)-c1ccccc1CC3	0.32
O=C(CC(c1ccccc1)N(C(=O)Nc1ccccc1Cl)c1ccccc1)C1CC1 (stereo not drawn)	-1.59

Already shown: entries from further up.
smiles	Measles inh
O=C(NCCCN1CCCCCC1)c1cccn2c(=O)c3c4c(sc3nc12)CCCC4	-0.41
Cc1[nH]c2ccccc2c1C=Nc1ccc(O)cc1	-0.58
Cc1cccc(C)c1Nc1c(-c2ccccn2)nc2ccc(Br)cn12	-0.49
CCCCCSc1oc(-c2ccco2)nc1S(=O)(=O)c1ccc(C)cc1	0.07
COC(=O)c1c(NC(=O)COc2ccc(C(C)C)cc2)sc2c1CCCC2	-0.3

Later entries:
smiles	Measles inh
CCCN1C(=O)C2C(C(=O)Nc3ccc(OC)cc3)C3C=CC2(O3)C1C(=O)NC1CCCC(C)C1C (stereo not drawn)	-0.55
Cc1ccc(CNC(=O)CCNS(=O)(=O)c2ccc(Br)s2)cc1	-0.35
COc1ccc(NC(=O)c2oc3ccc(S(=O)(=O)N4CC(C)CC(C)C4)cc3c2C)c(OC)c1 (stereo not drawn)	-0.07
Cc1cccc(NC(=O)c2c(NC(=O)c3ccccc3F)sc3c2CCC(C)C3)c1 (stereo not drawn)	0.16
CC1(C)OC(=O)CC1C(=O)N1CCOCC1 (stereo not drawn)	0.36
COc1cccc(NC(=O)CN2CCN(S(=O)(=O)c3ccc(Br)cc3)CC2)c1	1.46
O=C(Cn1c(=O)[nH]c2ccccc2c1=O)N1CCN(c2cccc(Cl)c2)CC1	0.34
CC(=O)N(c1ccc2oc3c(c2c1)CCCC3)S(=O)(=O)c1cc(C)c(C)cc1C	-0.85
O=C(COc1ccc(Br)cc1)Nc1c[nH]c(=O)[nH]c1=O	-0.77
CN1CCN(C(=O)c2cc3ccccc3c(=O)o2)CC1	-0.61
Cc1ccc(O)c(-c2cc(C(F)(F)C(F)F)on2)c1	-0.12
COc1ccccc1N1CCN(C(=O)c2cc3c(=O)oc4ccccc4c3s2)CC1	-0.17
Cc1ccc(-n2cnc3cc(N=Cc4ccc(Br)cc4)ccc32)cc1	-0.45
CCOC(=O)C1=C(C)N=C2SC(C)C(=O)N2C1c1ccc(OCC)c(OCC)c1 (stereo not drawn)	-1.55
Cn1c(C(=O)NCc2ccc(F)cc2)cc2c(=O)[nH]c3ccccc3c21	-0.19
O=C(c1ccc(C(=O)N2N=C(C3CC3)CC2(O)C(F)(F)F)cc1)N1N=C(C2CC2)CC1(O)C(F)(F)F (stereo not drawn)	-0.72
CCCCOC(=O)C1=C(C)NC2=C(C(=O)CC(C)(C)C2)C1c1ccccc1Cl (stereo not drawn)	-1.32
CCCSc1nnc(-c2ccccc2N)c(=O)[nH]1	0
CC1(C)CC(=O)C2=C(C1)NC1=C(C(=O)CC(C)(C)C1)C2c1ccccc1F	0.05
Cc1cc(N2C(=O)c3ccc(C(=O)N4CCc5ccccc5C4)cc3C2=O)no1	2.23
Cc1ccccc1NC1=NS(=O)(=O)c2ccccc21	-0.1
FC(F)(F)c1cc(-c2ccccc2)nc(N2CCN(Cc3ccccc3)CC2)n1	-1.04
Cn1c(=O)cc(SCC(=O)NC2CCCC2)c2cc(Cl)ccc21	-0.6
CCSc1nc2c([nH]c3ccccc32)c(=O)n1-c1cc(C)cc(C)c1	0.54
CCN(CCCNC(=O)c1nn(-c2ccc(C)cc2)c(=O)c2c1c1ccccc1n2C)c1ccccc1	0.16
COC(=O)C1C(=O)C2=C(CC1C)NC(C)=C(C(=O)OC1CCCCCC1)C2c1cccs1 (stereo not drawn)	-2.18
Cc1ccccc1-c1cc(C(=O)NCc2ccc(Cl)cc2)c2ccccc2n1	-0.75
COC(=O)c1cc(NC(=O)c2ccccc2Br)cc(C(=O)OC)c1	1.7
O=C(CSc1nc2c(sc(=S)n2Cc2ccco2)c(=O)n1-c1ccccc1)c1ccccc1	-1.31
COC(=O)C1=C(C)NC2=C(C(=O)CC(c3ccc(OC)cc3)C2)C1c1ccc(OC)cc1OC (stereo not drawn)	-0.47
COC(=O)c1ccccc1-n1c(=O)c2ccccc2c2ccccc2c1=O	-2.06
CCCCN(CC)c1nc(-c2ccc([N+](=O)[O-])cc2)nc2ccccc12	-1.25
Cc1cccc(NC(=O)C(NS(=O)(=O)c2cccs2)c2ccccc2)c1C (stereo not drawn)	0.3
Cc1cc(C)c(S(=O)(=O)NCCn2c(C)cc3ccccc32)c(C)c1	-0.94
CC(C)c1cc(C(=O)N2CCN(c3ccc(F)cc3)CC2)no1	-0.16
O=c1c2c(nc3n1CC(c1ccccc1)S3)-c1ccccc1CC21CCCC1 (stereo not drawn)	0.02
Cc1nn(C(=O)c2nn(C)cc2[N+](=O)[O-])c(C)c1Br	-0.01
CN(C)c1ccc(NC(=O)CSc2nc3ccccc3c(=O)n2CCN2CCOCC2)cc1	-0.2
COc1ccc(C2C(C(=O)N(C)c3ccc(OC)cc3)c3cc(OC)c(OC)cc3C(=O)N2C)cc1 (stereo not drawn)	1.05
CCOc1ccccc1-n1c(=S)sc2c(=O)[nH]c(SCC(=O)c3ccccc3)nc21	-0.24
O=C(O)c1cc(C(=O)O)cc(C23CC4CC(CC(C4)C2)C3)c1	-0.7
COc1ccc(-n2c(-c3ccc(Br)cc3)cn3c4c(=O)n(C)c(=O)n(C)c4nc23)cc1OC	0.64
O=C(Nc1cccc(Cl)c1)c1cc(-c2ccc(Br)cc2)on1	1.22
COc1ccc(NC(=O)CSc2cc(=O)n(C)c3ccccc23)cc1Cl	0.48
CCOC(=O)C1=NNC2C(=O)N(c3ccc(C)c(C)c3)C(=O)C12 (stereo not drawn)	-0.67
CC(C)c1ccc(OCc2nc(-c3ccncc3)no2)c(Br)c1	0.91
Clc1ccc(N=C(c2ccccc2)C23CN4CN(CN(C4)C2)C3)cc1	0.85
COc1ccc(OCCCC(=O)Nc2nc3ccccc3s2)cc1	-1.33
Cc1ccc(NC(=O)CCN2CC(C)OC(C)C2)cc1 (stereo not drawn)	0.41
COc1cccc2cc(-c3ccc4c(c3)OCO4)c(=O)oc12	-0.17
COc1ccc(CCN2C(=O)c3cccc4cccc(c34)C2=O)cc1OC	0.74
O=C(CN1C(=O)COc2ccc(Cl)cc21)NC1CCCCCC1	-1.32
O=C(C1CC(=O)N(C2CCCC2)C1)N1CCC(Cc2ccccc2)CC1 (stereo not drawn)	-0.28
CC1CCCC(NC(=O)c2cn(C)c(=O)c3c2c2ccccc2n3C)C1C (stereo not drawn)	0.98
O=C(O)CC1SC(=Nc2ccc(O)cc2)NC1=O (stereo not drawn)	0.34
CCn1c(C(C)NC(C)=O)nc2ccccc21 (stereo not drawn)	-0.41
CCOC(=O)c1cc2c(=O)n3ccccc3nc2n(CCCOC)c1=NC(=O)c1cccnc1	-0.83
O=C(Nc1ccc(OC(=O)c2ccncc2)cc1)c1ccncc1	-0.12
O=c1c2ccccc2c(-c2ccc(F)cc2)nn1-c1cc(N2CCOCC2)ccc1[N+](=O)[O-]	-0.57
Cc1ccc(C2OC3(C(=O)c4ccccc4C3=O)C3C(=O)N(c4cccc(Cl)c4C)C(=O)C23)cc1 (stereo not drawn)	-0.17

Screening data: PubChem BioAssay, Emory University Molecular Libraries Screening Center
